# Bioassay records from PubChem.
# AID504770 – E. coli YBA685 growth inhibition, screen for V. cholerae RctB inhibitors | AID 504770 | z-score (no concentration beside the values) | E. coli YBA685 rctB-dependent plasmid, OD600 growth, 3 h; active compounds read low | 130,000 tested, 0.27% active;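 active means z-score under -2 on both plates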;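 further: wells of about 30 µL received 100 nL stock; score is relative to mean and SD of the test wells; the first replicate is given; strong numbers were not always called active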
# CapD inh – inhibitors of Bacillus anthracis CapD enzyme | purified CapD enzyme, fluorescence intensity read-out; active compounds read low; some hits fall short of the stated cut | AID 492967 | 140,000 tested, 0.23% active | z-score (concentration not given with the values);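 active means z-score under -4 in either of two replicates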;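 further: stock transfer was 100 nL into about 40 µL; score is relative to mean and spread of the plate; one replicate is shown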
# * = called active by the depositor; i = inactive; . = not tested or not shown; & = joins results of further samples. Rows were taken by chance. Share with any hit: about 0.41%.
SMILES,AID504770,CapD inh
COc1ccc(C2SCCN2S(=O)(=O)c2ccc(Cl)c(Cl)c2)cc1OC (stereo not drawn),.,-0.32
Clc1ccc(N=c2oc3ccccc3cc2-c2nc3ccccc3s2)cc1,.,-0.135
Cc1ccc2oc(C(=O)OC(CN(C)C)CN(C)C)cc2c1,-0.65,12.5
CCOc1cc(CN)c(-n2cccc2)cc1OCC,-0.7,0.645
CS(=O)(=O)n1nc(OC(=O)c2cc(Br)ccc2Cl)cc1N,-0.1,.
COC(=O)c1ccc(C2C(Oc3ccc(OC)cc3)C(=O)N2Cc2ccc(F)cc2)cc1 (stereo not drawn),-0.7,-0.165
CCOC(=O)C1C2NC(=S)N(c3ccccc3)C1(C)Oc1ccccc12 (stereo not drawn),0.05,-0.485
C=CCNC(=O)c1ccc2cccnc2n1,.,-0.02
Cc1sc2nc(COC(=O)C(NC(=O)c3ccco3)C(C)C)[nH]c(=O)c2c1C (stereo not drawn),-0.25,.
CCC(C)NC(=O)C1CCN(c2nc3ccccc3n3cccc23)CC1 (stereo not drawn),-0.15,-0.825
N#CNC(N)=Nc1ccc(Cl)cc1,.,0.305
O=C1c2ccccc2C(=O)N1CCSc1nnc(-c2ccco2)n1Cc1ccccc1,-0.15,.
COc1ccc(NC(=O)c2c(N)sc(-c3ccccc3)c2C)cc1,2.1,-0.155
C=CCOC(=O)c1c2nc3ccccc3nc2n2c1[nH]c(=O)c1ccc(C(=O)OC)cc12,0.05,.
CN1C(=O)C(C)(C)c2cc(S(=O)(=O)NC3CCCCCC3)ccc21,0.15,-0.985
O=C(Cc1ncc(C(F)(F)F)cc1Cl)NCc1ccco1,-0.5,-0.8
O=C(c1cnn(C(=O)COc2ccccc2F)c1)c1cc(F)ccc1O,-1.3,.
Cc1ccc(N2C(=O)CC(C3=C(N4CCOCC4)CCCC3)C2=O)cc1 (stereo not drawn),-0.55,-0.15
CC(/C(O)=C(\C#N)c1nc2ccccc2n1C)N1C(=O)c2ccccc2C1=O (stereo not drawn),0.35,.
CCCN1C(=O)C(O)(C/C(C)=N\O)c2ccccc21 (stereo not drawn),-0.95,-0.04

# For reference, part of the list above:
SMILES,AID504770,CapD inh
COc1ccc(C2SCCN2S(=O)(=O)c2ccc(Cl)c(Cl)c2)cc1OC (stereo not drawn),.,-0.32
Clc1ccc(N=c2oc3ccccc3cc2-c2nc3ccccc3s2)cc1,.,-0.135

# Additional structures.
SMILES,AID504770,CapD inh
CCn1cc(C(=O)OCC(=O)N2CCN(S(=O)(=O)c3ccc(Cl)cc3)CC2)c(=O)c2ccc(C)nc21,0.05,.
CN(C)/C=C(\Sc1nnc(N)s1)C(=O)Nc1ccc(F)c(F)c1F,-0.7,-0.32
CCCCOC(=O)Nc1nc(C)c(C(=O)OCC)s1,.,-0.315
COc1ccc(OC)c(-c2nnc(NC(=O)Cc3cccs3)s2)c1,2.5,7.85
COc1ccc(C(=O)CSc2nc(C)cc(C)n2)cc1C,0.7,.
O=C(NCCN1CCN(c2ccccc2)CC1)c1cccc(Cl)c1,.,-0.275
COc1ccc(NS(=O)(=O)c2ccccc2)cc1,-0.35,-0.405
Cc1ccc(C)n1CCN1CCN(C(=O)c2ccco2)CC1,-0.95,-0.015
Cc1ccc(C)n1-c1cc(Cl)ccc1C(=O)O,1.1,-5.49*
O=S(=O)(NCCc1c[nH]c2ccccc12)c1ccc(Cl)c(Cl)c1,0,0.55
Cc1ccc(C(=O)CNc2cccc3ccccc23)cc1,2.5,1.88
COc1cccc(CNc2ccc3c(c2)ncn3C)c1,1.65,50.8
CC(C)(C)C(=O)Nc1ccc(O)c(-c2nc3ccccc3s2)c1,0.05,3.88
Cc1ccc(-n2cnc3cc(N=Cc4ccc(N(C)C)cc4)ccc32)cc1,-0.5,-0.505
Cc1cccc(N2CCN(c3cc(NCCCO)c([N+](=O)[O-])c4nonc34)CC2C)c1 (stereo not drawn),.,0.45
CSc1ccccc1NC=C(C#N)C#N,0.05,-1.57
CCOC(=O)c1c(CSc2ccccc2)n(-c2ccccc2)c2cc(Br)c(OC(C)=O)cc12,.,0.245
N#C/C(=C\c1ccc(-c2ccc(F)cc2)o1)c1ccccc1,-0.15,i
COC(=O)C1=C(N)OC2=C(C(=O)CC(c3ccccc3)C2)C1c1ccc(Cl)cc1 (stereo not drawn),.,-0.515
CC(=O)Oc1ccc(OC(C)=O)c2c1C1C=CC2CC1,0.85,-1.1
CCCN1CCC(N(C(=O)Nc2ccccc2C(=O)NCc2ccccc2)C2CC2)CC1,.,0.065
CC(C)(C)OC(=O)C(Cc1c[nH]c2ccccc12)NC(=O)OCc1ccc(Cl)cc1 (stereo not drawn),.,-0.54
CCc1ccccc1NC(=O)CCn1c(=O)sc2ccccc21,0,0.485
COC(=O)Cn1cnc2sc(C)c(S(=O)(=O)N3CCC(C)CC3)c2c1=O,1.45,-0.15
COc1cccc(C2NC(=S)NC(C)=C2C(=O)Nc2ccccc2C)c1OC (stereo not drawn),.,-0.64
COC(=O)C(Cc1c[nH]c2ccccc12)NC(=O)c1cc([N+](=O)[O-])cc([N+](=O)[O-])c1 (stereo not drawn),.,-0.17
CC1CC(C)CN(C(=O)COC(=O)COc2ccc(Br)cc2)C1 (stereo not drawn),-0.15,-0.135
O=C(NCCCN1CCCC1=O)C1CCN(c2ncnc3c2sc2cccc(F)c23)CC1,0.25,16.3
O=c1c(Cc2c(F)cccc2Cl)c(O)ccn1Cc1ccc(F)cc1,.,0.37
Cn1c(=O)c2c(nc(SCC(=O)N3CCCC3)n2C)n(C)c1=O,-0.35,.
Cc1cc(=O)oc2oc3c(O)c(O)ccc3c12,-0.45,-1.44
COC(=O)c1ccc(/C=c2\sc3nnc(-c4ccccc4)n3c2=O)cc1,.,-0.45
Cc1c(C(=O)NCCCn2ccnc2)oc2ccccc12,-0.4,-1.05
Nc1ccc(-c2nc3ccccc3n2CCO)cc1,1.4,13
CC(C)(C)c1cc(C(c2ccc(O)cc2)N2CCOCC2)cc(C(C)(C)C)c1O (stereo not drawn),-0.85,-0.22
CC(OC(=O)c1ccccn1)C(=O)Nc1ccc(C(N)=O)cc1 (stereo not drawn),-0.55,.
O=C(CSc1ccccc1)NCc1nc(-c2ccccc2)no1,-0.15,0.67
Oc1ccccc1C=Nc1ccc(F)cc1,.,0.1
CCN(CC)CCOC(=O)C(Cc1cccc2ccccc12)CC1CCCO1 (stereo not drawn),0.2,1.44&-0.545
COC(=O)C(Cc1c[nH]c2ccccc12)NS(=O)(=O)c1ccc(Cl)cc1 (stereo not drawn),1.05,-0.165
COC(=O)C(N)C12CC3CC(CC(C3)C1)C2 (stereo not drawn),0.3,0.99
CCNC(=S)Nc1sc2c(c1C(=O)OCC)CC(C)(C)OC2,-0.1,2.31
CCc1ccc2nc(N3CCC(C(=O)NCCc4ccccc4)CC3)sc2c1,.,-0.725
COC(=O)c1cccc(Cn2c(C)nc3ccccc3c2=O)c1,2.3,-0.02
N#Cc1nccnc1SCCO,0.1,0.415
COc1ccc(N2CC(O)(c3ccc(Br)cc3)[N+]3=C2CCCC3)cc1 (stereo not drawn),.,-0.265
O=c1[nH][nH]c(=S)n1-c1ccccc1C(F)(F)F,-0.4,8.86
CCN(CC)CCN1C(=O)C(O)=C(C(=O)/C=C/c2ccco2)C1c1ccc(OC)cc1 (stereo not drawn),0.9,.
CCC(C)NC(=O)[C@@H]1CCCN1S(=O)(=O)c1ccccc1C(F)(F)F (stereo partly drawn),-0.4,.
COc1ccc(C(=O)N2N=C(c3cccc(OC)c3)CC2(O)C(F)(F)F)cc1 (stereo not drawn),.,-0.635
CC(SC1=NCCS1)C(=O)Nc1nnc(-c2ccc(F)cc2)s1 (stereo not drawn),-0.75,-0.045
Cc1nc(CSc2nc3ccccc3s2)cs1,-0.55,.
Cc1ccc2c(c1)sc(=NC(=O)Cc1cccc3ccccc13)n2C,-0.45,0.47
CCC(C)C1Nc2ccc(C(=O)NC3CCCC3)cc2NC1=O (stereo not drawn),0.1,2.42
CCOc1nc2sc3c(c2c2ncnn12)CCCC3,-0.85,-0.15
CC(C)c1ccc([C@@H]2Nc3ccc(C(=O)O)cc3[C@@H]3C=CC[C@@H]32)cc1,2.35,-0.07
O=C(O)CSc1nnc(-c2ccc(Cl)cc2Cl)n1Cc1ccco1,-0.6,-0.16
COc1ccc(C2C3=C(CC(C)(C)CC3=O)OC3=C2C(=O)CC(C)(C)C3)cc1COc1ccccc1F,.,-0.26
O=C(OCc1cn(-c2ccc(Cl)cc2)nn1)c1cccc(C(F)(F)F)c1,.,0.495
COc1ccc(C2CC(=O)C3=C(C2)Nc2ccccc2NC3c2ccc(C)c([N+](=O)[O-])c2)cc1OC (stereo not drawn),.,-1.1

# More structures follow:
SMILES,AID504770,CapD inh
CCSc1nnc(Cc2cc(=O)[nH]c(=O)[nH]2)n1-c1cccc(C)c1,0.4,-0.18
O=C(Nc1ccc(Cl)cc1Cl)C1C2C3CCC(C3)C12 (stereo not drawn),-0.65,-0.205
CCC(C(=O)NCCc1cc2c(C)ccc(C)c2[nH]c1=O)c1ccccc1 (stereo not drawn),2.75,-0.045
O=C(CCCn1c(=O)c2cccn2c2ccccc21)Nc1ccccc1F,-0.6,-0.015
C/C(=C\c1ccco1)C1Nc2cccc3cccc(c23)N1,0,.
Cc1ccc(C(=O)NCC(=O)N2CCN(c3ccccc3)CC2)cc1,-1.05,0.04
O=C(COC(=O)c1cc(-c2ccccc2)nc2ccccc12)NCc1ccccc1,0.9,0.08
O=C(NCC1(c2ccccc2)CCCC1)c1ccc(Br)o1,1.5,-0.145
Cc1ccc(Cn2nc(C)c3cc(C(=O)OCC(N)=O)sc32)cc1,-0.75,.
NC(=O)COC(=O)c1ccc2ncsc2c1,-0.75,.
CCN1CCSc2ccc(C(=O)Nc3ccc(OC)cc3)cc21,0.7,0.355
O=C(CN1CCN(Cc2ccccc2)CC1)N1CCCc2c1c(=O)oc1ccc(O)cc21,1.5,1.65
Cc1sc(/N=C/N(C)C)c(C(=O)c2ccc(Cl)cc2)c1C,-0.55,8.99
CC12CC(=O)CC1(C)CC(=O)C2 (stereo not drawn),.,0.07
CSc1ncccc1C(=O)OCC(=O)Nc1ccc(N2CCOCC2)cc1,-0.05,.
CCOC(=O)Cc1csc(-c2ccc(Cl)cc2)n1,-0.85,0.89
CCOC(=O)CC1C(=O)NCCN1Cc1ccco1 (stereo not drawn),2.55,-0.735
CC(C)(C)c1ccc(OCC(=O)Nc2cccc3nsnc23)cc1,-0.4,-0.42
COc1ccc2c(c1)c(=O)c1ccccc1n2CC(=O)Nc1ccc(OC)c(Cl)c1,.,0.29
COc1ccc(OC)c(NC(=O)C2C3CC/C=C\CC/C=C/CCC32)c1 (stereo not drawn),1.1,0.805
O=S(=O)(c1ccc(Cl)s1)N1CCC(O)(Cc2ccccc2)CC1,.,-0.655
Cn1cc(C(=O)c2ccccc2O)cc1-c1nc2ccccc2s1,0.7,.
Cc1nc2n(CCN3CCOCC3)c3ccccc3n2n1,-0.85,-1.29
Cn1c(=O)cc(SCC(=O)NCCCN2CCOCC2)c2ccccc21,-0.9,6.68
COc1ccc(-c2noc(N(C)CC(=O)NCCC3=CCCCC3)n2)cc1,1.05,-1.2
Cc1ccc(-c2cnc3n2CCCCC3)cc1,.,0.105
CCc1cc2c(=O)c(-c3csc(C)n3)coc2cc1O,-0.75,-0.215
C=C(C)C(=O)Oc1ccc(NC(C)=O)cc1,-0.1,-0.115
CSc1nc2ccc(NS(=O)(=O)c3ccc(NC(C)=O)cc3)cc2s1,.,-0.3
CCn1nc(C)c(CCNC(=O)c2ccc(NC(=O)C3=CSCCO3)cc2)c1C,0.25,-0.605
CCC(=O)NCCSc1c(-c2ccc(OC)cc2)[nH]c2ccccc12,-0.7,109
COC(=O)C1(C(F)(F)F)N=C(N2CCCCC2)OC(N2CCCCC2)=N1,1,0.33
CCOc1ccc(S(=O)(=O)N(C)CC(=O)N2CCOCC2)cc1,1,.
O=C1C(=O)N(CCO)C(c2ccccc2)/C1=C(/O)c1ccccc1 (stereo not drawn),-0.3,-0.57
CC(C(=O)Nc1ccon1)N1C(=O)c2ccccc2S1(=O)=O (stereo not drawn),-0.35,.
Cc1ccc(/C(N)=N\O)n1C,1.6,-0.07
CNCC(=O)Nc1ccc(OC)cc1,-0.3,.
CC(=O)c1ccc(-c2ccccc2OC(F)(F)F)o1,.,1.98
COc1ccc(C(=O)NC(C)c2nnc(SCC(=O)Nc3nc(C)c(C)s3)n2C)cc1 (stereo not drawn),-0.35,.
CS(=O)(=O)Cc1nc2ccccc2[nH]1,-0.35,.

# Grouped by structure, the entries above containing an aryl thioether with sulfur outside any ring
SMILES,AID504770,CapD inh
O=C1c2ccccc2C(=O)N1CCSc1nnc(-c2ccco2)n1Cc1ccccc1,-0.15,.
CN(C)/C=C(\Sc1nnc(N)s1)C(=O)Nc1ccc(F)c(F)c1F,-0.7,-0.32
COc1ccc(C(=O)CSc2nc(C)cc(C)n2)cc1C,0.7,.
CSc1ccccc1NC=C(C#N)C#N,0.05,-1.57
CCOC(=O)c1c(CSc2ccccc2)n(-c2ccccc2)c2cc(Br)c(OC(C)=O)cc12,.,0.245
Cn1c(=O)c2c(nc(SCC(=O)N3CCCC3)n2C)n(C)c1=O,-0.35,.
O=C(CSc1ccccc1)NCc1nc(-c2ccccc2)no1,-0.15,0.67
N#Cc1nccnc1SCCO,0.1,0.415
Cc1nc(CSc2nc3ccccc3s2)cs1,-0.55,.
O=C(O)CSc1nnc(-c2ccc(Cl)cc2Cl)n1Cc1ccco1,-0.6,-0.16
CCSc1nnc(Cc2cc(=O)[nH]c(=O)[nH]2)n1-c1cccc(C)c1,0.4,-0.18
CSc1ncccc1C(=O)OCC(=O)Nc1ccc(N2CCOCC2)cc1,-0.05,.
Cn1c(=O)cc(SCC(=O)NCCCN2CCOCC2)c2ccccc21,-0.9,6.68
CSc1nc2ccc(NS(=O)(=O)c3ccc(NC(C)=O)cc3)cc2s1,.,-0.3
CCC(=O)NCCSc1c(-c2ccc(OC)cc2)[nH]c2ccccc12,-0.7,109
COc1ccc(C(=O)NC(C)c2nnc(SCC(=O)Nc3nc(C)c(C)s3)n2C)cc1 (stereo not drawn),-0.35,.
